Screens as filed in PubChem.
RanGTP-Imp inh – inhibitors of RanGTP-importin-beta interaction, primary screen, biochemical, FRET, CFP-Ran, YFP-importin-beta, homogeneous | cell-free CFP-Ran/YFP-importin-beta FRET ratio | inhibition, % (test concentration not listed) | actives 1.1% (n = 300,000) | AID 2216, 2009;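 active = most replicates above 15%; inconclusive = exactly half above 15%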;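 note: 0% = DMSO wells and 100% = Ran loaded with GDP instead of GTP; wells of about 40 µL received 100 nL stock; the first replicate is given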
Beta2AR agonist – beta2AR agonists driving receptor internalization, primary screen, cell-based, FAP fluorogen, flow cytometry; response, % (concentration not given with the values); Beta-2 adrenergic receptor (Homo sapiens), P07550; actives 0.43% (n = 340,000); Am2.2-beta2AR cells; reference of the scale not given here;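 active = response above a set limit, near 3 SD of response in nonfluorescent compounds, cut at about 42% in these data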;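 note: stock transfer was 100 nL into about 11 µL; a reference agonist was the positive control; negative values mostly stem from fluorescent compounds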
UCH37 inh – inhibitors of human UCH37 deubiquitinase, primary screen, biochemical, Ub-AMC cleavage, fluorescence | Ubiquitin carboxyl-terminal hydrolase isozyme L5 (Homo sapiens), Q9Y5K5 | purified proteasome/UCH37 | inhibition, % (no concentration beside the values) | actives 0.33% (n = 330,000) | AID 588478, 2011;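 active = mean of two replicates above 20%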;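 note: 0% = compound-free wells with enzyme and 100% = wells lacking proteasome; stock transfer was 100 nL into about 20 µL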
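assay system = human UCH37 enzyme supplied as purified proteasome complex | amount = proteasome at 0.15 nM in the dispensed enzyme solution | schedule = 30 min compound-proteasome preincubation then 25 min substrate reaction, room temperature | measured by = fluorescence, ex 355 nm, em 460 nm | benchmarks = no-proteasome wells (full inhibition) and compound-free wells (no inhibition)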
T cruzi inh – inhibitors of intracellular T. cruzi growth, primary screen, luminescence, NIH3T3 host cells. AID 1885, 2009. inhibition, % (concentration not given with the values). T. cruzi beta-gal in NIH3T3, 90 h. actives 1.4% (n = 300,000);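 active = mean inhibition across valid replicates above about 55%, limit read from the data; inconclusive = mean below that limit but half or more replicates reach it; inactive = mean below it, under half of replicates reach it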;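 note: signal also drops with host cell toxicity which is not excluded here; 0% = plate median of DMSO wells and 100% = zero luminescence signal; higher percent means less beta-gal luminescence so fewer parasites; stock transfer was 50 nL into about 50 µL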
Beta apoptosis – inhibitors of cytokine-induced beta cell apoptosis, primary screen, luminescence; INS-1E cytokine-induced death, ATP luminescence, 48 h; percent of positive-control rescue, neutral wells zero; protection from apoptosis, % (concentration not given with the values); actives 0.8% (n = 300,000); AID 435005, 2010;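 active = all replicates at 75% or more, or half of them and the mean; inconclusive = half reach 75% but not the mean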;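 note: 0% = cytokine-treated negative control wells and 100% = positive control rescue; higher means more ATP so stronger rescue from cytokine killing; wells of about 40 µL received 100 nL stock; the first replicate is given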
Calb FLC – C. albicans growth inhibition with fluconazole, primary screen, CaCi-2 strain, Alamar Blue fluorescence; C. albicans CaCi-2 (fluconazole-resistant clinical isolate) + fluconazole, 48 h; growth inhibition, % (concentration not given with the values); actives 0.57% (n = 300,000);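 active = most replicates above 75%; inconclusive = exactly half above 75%; inactive = most below 75%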;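 note: all wells also contain fluconazole at 8 µg/ml as a sub-toxic cotreatment; 0% = median of DMSO wells and 100% = median of geldanamycin control wells; wells of about 8 µL received 7.5 nL stock; the first replicate is given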
Bfl-1 A1 inh – caspase 3/7 activation in MEF A1-2A-BIM cells, primary screen, A1 inhibitor project, cell-based, luminescence, HTS | Caspase-Glo 3/7 luminescence, 3 h; percent of clofoctol response, vehicle zero | caspase activation, % (concentration not given with the values) | actives 0.066% (n = 330,000) | AID 2462, 2010;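 active = over half of replicate activation scores above 10%, or exactly half above 10 with the replicate mean above 10; inconclusive = replicate mean below 10 yet half the replicates above 10; inactive = over half of replicates below 10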;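 note: wells of about 30 µL received 50 nL stock; many hits fall short of the cut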
LANA-H2A inh – blockers of LANA interaction with H2A/H2B – biochemical, FP readout, HTS, primary screen | inhibition, % (no concentration beside the values) | AID 2629, 2010 | actives 0.6% (n = 320,000) | cell-free LANA-H2A/H2B peptide, fluorescence polarization; in the data active = inhibition mostly above about 10%, no sharp cut-off; inactive = mostly below about 6.7%;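 note: stock transfer was 7.5 nL into about 10 µL; 0% = median of vehicle wells and 100% = median of positive control wells; one replicate is shown; the record names a cut of 25% in any replicate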
Target sequence (Q9QR71 whole entry, looked up): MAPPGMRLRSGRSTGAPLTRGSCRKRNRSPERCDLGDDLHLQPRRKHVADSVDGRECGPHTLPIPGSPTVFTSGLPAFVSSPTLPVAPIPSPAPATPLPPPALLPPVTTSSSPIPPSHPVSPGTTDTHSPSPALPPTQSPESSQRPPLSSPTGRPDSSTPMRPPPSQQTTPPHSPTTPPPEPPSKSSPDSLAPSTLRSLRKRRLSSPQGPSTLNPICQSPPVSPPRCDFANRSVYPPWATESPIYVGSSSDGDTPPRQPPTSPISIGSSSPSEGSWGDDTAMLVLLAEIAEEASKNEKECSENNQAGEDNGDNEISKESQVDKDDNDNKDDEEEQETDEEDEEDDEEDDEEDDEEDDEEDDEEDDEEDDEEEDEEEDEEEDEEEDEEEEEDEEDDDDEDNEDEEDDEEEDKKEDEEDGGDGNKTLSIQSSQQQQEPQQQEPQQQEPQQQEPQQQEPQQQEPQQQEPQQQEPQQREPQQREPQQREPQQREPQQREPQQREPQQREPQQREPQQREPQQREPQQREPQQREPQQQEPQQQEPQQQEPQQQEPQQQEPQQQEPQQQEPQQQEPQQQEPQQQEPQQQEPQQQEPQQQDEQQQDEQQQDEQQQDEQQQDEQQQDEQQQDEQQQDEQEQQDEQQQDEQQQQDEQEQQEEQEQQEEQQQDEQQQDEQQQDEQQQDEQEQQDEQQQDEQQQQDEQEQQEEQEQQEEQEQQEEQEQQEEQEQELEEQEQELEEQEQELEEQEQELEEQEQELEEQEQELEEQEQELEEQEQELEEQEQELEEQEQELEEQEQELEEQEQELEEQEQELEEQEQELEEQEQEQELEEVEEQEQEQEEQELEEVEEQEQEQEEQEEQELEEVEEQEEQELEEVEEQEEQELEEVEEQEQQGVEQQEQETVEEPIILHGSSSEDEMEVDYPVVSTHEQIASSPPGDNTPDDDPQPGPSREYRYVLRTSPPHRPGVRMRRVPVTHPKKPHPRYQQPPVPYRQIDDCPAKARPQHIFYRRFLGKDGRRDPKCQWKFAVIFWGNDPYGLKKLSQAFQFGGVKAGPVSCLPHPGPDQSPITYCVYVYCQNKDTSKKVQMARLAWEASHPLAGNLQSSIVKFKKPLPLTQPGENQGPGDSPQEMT
* hit, by the source's call; ? = inconclusive; . = not tested or not shown; & = joins results of further samples.

Every second line gives: Calb FLC	Beta apoptosis	RanGTP-Imp inh	Beta2AR agonist	Bfl-1 A1 inh	LANA-H2A inh	UCH37 inh	T cruzi inh
CCN(CC)C(=O)CN1C(=O)c2cccc3cccc(c23)C1=O
    -5	.	1.4	0	-0.1	4.0	-53	1
COC(=O)CSc1n[nH]c(=S)s1
    -7	-12	3.9	7	0.1	3.4	-0.7	-7
Cc1ccc(NC(=O)C2CCCN(S(=O)(=O)c3cnc[nH]3)C2)c(Br)c1 (stereo not given)
    -1	-8	3.4	0	-0.1	0.7	3.6	-36
CCCCN(C(=O)c1ccccc1F)c1c(N)n(CCC)c(=O)[nH]c1=O
    -1	-5	0.1	1	-0.2	-2.2	-1.2	-6
CCOC(=O)Nc1ccc2c(COC(=O)CN(C)S(=O)(=O)c3ccc(C)cc3)cc(=O)oc2c1
    -19	-2	-0.2	6	-0.8	0.5	-115	-8
Cc1ccccc1Sc1ncnc2onc(C)c12
    4	-12	2.7	14	0.5	0.8	1.2	-21
Cc1ccc(C)c(-n2c(CNC(=O)c3ccco3)nnc2SCC(=O)Nc2nnc(C)s2)c1
    9	0	-4.6	-5	0.3	-4.3	3.2	6
CC(=O)NC1C(OCc2ccccc2)OC(COC(C)=O)C(OC(C)=O)C1OC(C)=O (stereo not given)
    -9	3	.	-8	-0.1	5.5	1.0	-20
COc1ccc(/C=c2\s/c(=C/C(=O)c3ccc(C)cc3)[nH]c2=O)cc1OC
    30	2	-2.0	-21	0.4	-1.1	.	-5
c1ccc(Cn2c(CNc3nc4ccccc4n3CCN3CCCCC3)nc3ccccc32)cc1
    2	0	1.9	14	1.4	9.2	-3.1	0
Cc1cccc(-c2c3c(=O)n(C)c(=O)n(C)c3cn2-c2ccc(O)cc2)c1
    -15	0	-5.0	3	0.9	-0.7	-43	-12
CC(C)Oc1ccc(C(=O)O)c(C(=O)O)c1
    18	-7	-5.6	0	0.8	-0.8	1.7	-18
CN(C1CCCCC1)C(CNS(=O)(=O)c1ccc(Cl)cc1)c1ccccc1 (stereo not given)
    -9	0	0.5	0	-0.5	1.8	1.5	23
COc1ccc(N2CCN(C(=O)CSc3nc4nc(C)cc(C)n4n3)CC2)cc1
    .	-4	.	-14	0.7	37*	5.0	.
CCOC(=O)C1CCCN(CCC(=O)Nc2ccccc2C)C1 (stereo not given)
    21	-4	-4.0	3	1.4	-2.0	2.2	15
Cc1cccc(Oc2coc3cc(OC(=O)c4cncc(Br)c4)ccc3c2=O)c1
    -20	-4	3.1	0	0.7	3.5*	-18	-22
O=C(OCC(=O)c1c[nH]c2ccccc12)c1ccco1
    -8	-2	-2.2	-2	0.6	-4.6	4.9	3
COC(=O)c1ccc(C[n+]2ccccc2)cc1
    -5	-2	-3.4	1	-0.2	-1.8	2.5	-10
CC(NCc1nc2ccccc2n1C)C12CC3CC(CC(C3)C1)C2 (stereo not given)
    -7	2	4.2	-6	-0.4	-2.6	0.4	13
O=C(NNC(=O)C1CC1)c1ccccc1[N+](=O)[O-]
    -13	-6	.	-2	0.4	1.3	-1.0	.
Cc1ccc(NS(=O)(=O)c2cc(-c3n[nH]c(=O)c4ccccc34)ccc2C)cc1
    -5	5	6.3	1	0.4	-3.3	.	20
Cc1cc(-c2cc(C(=O)O)c3ccccc3n2)c(C)s1
    80*	-7	0.2	0	-0.9	-1.2	4.3	-7
COc1ccc(NC(=O)c2cc3cccc(OC)c3oc2=Nc2ccc(C(=O)O)cc2)cc1OC
    23	.	5.1	11	.	.	24*	3
CC(C)OC(=O)CSc1nnc(-c2ccncc2)n1N
    0	-1	2.3	-1	-0.6	-4.3	1.3	-5
O=c1c2ccccc2cnn1-c1ccc2ccccc2c1
    -48	-1	?	5	-6.9	-0.7	-6.9	-10
COc1ccc2[nH]c3c(N4CCN(Cc5ccc6c(c5)OCO6)CC4)ncnc3c2c1
    2	40	2.7	17	-1.0	-3.4	-17	26
O=S(=O)(Nc1nc2ccccc2nc1NCC1CCCO1)c1cccc(Cl)c1 (stereo not given)
    26	11	1.2	1	-0.4	-6.1	-26	-3
CCOc1cc(N2CCOCC2)c(OCC)cc1NC(=O)CSc1ncn[nH]1
    27	-3	0.9	20	-0.5	11	4.5	-8
COc1ccc(S(=O)(=O)Nc2ccc(S(=O)(=O)Nc3cc(C)nc(C)n3)cc2)cc1OC
    -3	-8	-7.2	2	0.5	-0.2	1.0	-3
CC1(C)CC(NC(=O)c2ccc(Cl)c(Cl)c2)CC(C)(C)N1
    -13	.	3.6	1	0.4	2.8	3.1	-4
NC(=O)c1c(N)sc(=S)n1CC1CCCO1 (stereo not given)
    49	-8	-2.1	-5	-0.6	1.1	12	11
CCCCOC(=O)c1nc[nH]c1C(=O)OCCCC
    -20	-4	-0.7	2	-1.3	2.1	-2.8	-5
CC(=O)Nc1ccc(S(=O)(=O)N(C)CC(=O)OCC(=O)N2CCCC2=O)cc1
    -1	-7	-2.9	-6	-0.4	1.9	1.5	-8
Cc1ccc(C(=O)Nc2ccc(Br)c(C(F)(F)F)c2)cc1
    9	3	-1.8	9	-0.5	-2.7	1.7	28
CC1(C)CC(=O)C=C(C(=O)N2CCCC(CCC(=O)NCc3ccccc3F)C2)O1 (stereo not given)
    -8	-1	-3.2	5	-0.7	-1.2	2.4	-1
O=C(NCCCN1CCCC1=O)c1c(O)nc2sccn2c1=O
    -8	.	-2.4	-3	1.3	0.7	0.0	-7
Cc1[nH]c2ccccc2c1C(=O)CN1C(=O)C(=O)N(Cc2ccco2)C1=O
    17	0	-2.2	0	0.2	6.0	-0.9	-4
CCOC(=O)c1c(NC(=O)Cn2cnc([N+](=O)[O-])n2)sc2c1CCCC2
    -2	0	-0.3	2	0.6	1.1	0.4	64*
CCC(=O)Nc1c(C)nn(C(=O)CC)c1C
    2	1	0.8	-1	1.1	12	0.9	0
CCOC(=O)c1c(N)sc(C(=O)Nc2ccccc2F)c1C
    -3	8	0.8	-12	-9.9	11	0.0	11
COc1cccc(C(=O)N2CCC(N3CC(C)OC(C)C3)CC2)c1 (stereo not given)
    -5	2	?	0	0.4	0.4	-0.1	-15
CCC(C)NC(=O)c1ccccc1-c1nc2ccccc2[nH]1 (stereo not given)
    -11	0	-2.6	6	0.3	-2.2	2.3	-2
C/C(=N\NC(=O)c1ccccc1)c1ccc(-n2ccnc2)cc1
    -2	-1	-1.2	-1	-0.3	-2.9	.	2
CCOC(=O)C1=CN(c2cccc(F)c2)C=C(C(=O)OCC)C1c1cc(OC)c(O)c([N+](=O)[O-])c1
    8	.	0.8	5	0.3	0.0	7.5	11
CCOc1ccc(S(=O)(=O)N(CC)CC)cc1NS(=O)(=O)c1ccc(F)c(F)c1F
    7	-4	0.4	4	0.1	0.2	2.7	3
Cc1cc(C)nc(SCc2nnc(SCC(=O)Nc3ccc(C)c(C)c3)n2Cc2ccco2)n1
    9	3	4.7	-1	0.5	-4.9	-0.4	12
CC(C)(C)c1ccccc1NC(=O)C1=COCCO1
    -4	3	1.3	11	1.2	2.1	0.7	-3
CSc1nc2cc(S(=O)(=O)N3CCOCC3)ccc2s1
    1	-2	0.8	-9	-0.7	-5.3	2.0	-16
COc1ccc(CCn2c(=S)[nH]c3cc(C(=O)N4CCOCC4)ccc3c2=O)cc1OC
    4	9	0.4	1	0.2	0.7	3.8	23
CCC(NC(=O)C1(C)CC1(Br)Br)c1ccc(C)cc1 (stereo not given)
    -11	.	2.1	1	-0.2	-4.4	1.6	2

New compounds follow
Every second line gives: Calb FLC	Beta apoptosis	RanGTP-Imp inh	Beta2AR agonist	Bfl-1 A1 inh	LANA-H2A inh	UCH37 inh	T cruzi inh
CCOC(=O)C1=C(C)NC(C)=C(C(=O)OCC)C1
    2&6	-1&5	0.0	-11&-9	0.7&1.2	2.1&-3.9	-52&1.3	-3&-13
CC(=O)Nc1ccc2c(c1)CCCC2=O
    -2	1	1.5	-7	0.2	-3.4	4.3	-20
Cc1ccc2cc(C(=O)O)c(C)nc2c1
    0	-8	-0.3	4	-1.4	-0.7	4.5	-4
CCC(CC)C(=O)Nc1nnc(S(=O)(=O)N2CCc3ccccc32)s1
    5	8	5.2	-7	0.2	-2.0	1.9	9
CC(=O)NC1C(=O)N(CCN2CCOCC2)c2ccc(Br)cc21 (stereo not given)
    -31	0	-3.9	4	0.1	-2.1	.	-1
CCOc1ccccc1NC(=O)C(OC(=O)c1ccc(CC)cc1)c1ccccc1 (stereo not given)
    -11	4	1.5	-2	0.4	-4.1	6.6	40
COc1ccc(CC(=O)O/N=C(\N)c2cccc([N+](=O)[O-])c2)cc1
    -13	-5	-0.1	2	-0.4	-0.5	2.2	8
COC(=O)c1ccc(C(NC(=O)OCc2ccccc2)/C(F)=C/[C@@H](C)C(=O)NCc2ccc(OC)c(OC)c2)cc1 (stereo not given in full)
    .	4	.	-3	1.9	-2.2	0.2	.
O=C(O)C1OC(Oc2c(-c3ccc(O)c(O)c3)oc3cc(O)cc(O)c3c2=O)C(O)C(O)C1O (stereo not given)
    -11	0	4.4	.	-1.0	1.9	3.5	-2
